Source: PubChem
MLL AF4-AF9 inh: blocks AF4 peptide binding to human AF9; P42568; AlphaScreen, biotin-AF4 peptide binding to FLAG-AF9; inhibition, % at 10 µM; 350,000 compounds, 0.47% hits; AID 651704;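 active = every replicate reaching a set inhibition limit, whatever the replicate mean, cut at about 25% in these data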;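 note: 0% = plate neutral control median and 100% = total signal loss; the record names both 10 and 1 µM as test concentration; the first replicate is given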
Target sequence (P42568 whole entry, looked up): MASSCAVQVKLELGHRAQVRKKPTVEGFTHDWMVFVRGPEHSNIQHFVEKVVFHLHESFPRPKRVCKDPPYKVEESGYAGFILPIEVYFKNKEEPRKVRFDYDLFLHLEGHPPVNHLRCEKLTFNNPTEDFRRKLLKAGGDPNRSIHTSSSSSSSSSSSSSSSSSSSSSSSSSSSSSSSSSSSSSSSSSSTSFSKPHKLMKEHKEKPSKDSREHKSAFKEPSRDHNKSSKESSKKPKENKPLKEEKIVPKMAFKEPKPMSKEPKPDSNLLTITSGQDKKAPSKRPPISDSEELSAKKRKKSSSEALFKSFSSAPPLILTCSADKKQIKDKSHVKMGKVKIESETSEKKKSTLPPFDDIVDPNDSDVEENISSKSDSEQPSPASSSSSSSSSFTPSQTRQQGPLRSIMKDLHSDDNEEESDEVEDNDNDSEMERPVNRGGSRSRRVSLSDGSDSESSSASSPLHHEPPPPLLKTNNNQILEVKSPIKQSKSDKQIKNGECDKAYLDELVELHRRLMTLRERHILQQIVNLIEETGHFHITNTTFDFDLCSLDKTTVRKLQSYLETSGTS
Ecoli rRNA inh: inhibits bacterial ribosomal RNA function over humanized ribosomes. AID 720706. 350,000 compounds, 1.6% hits. GFP signal change (wild-type ribosome), % (concentration not given with the values). E. coli WT GFP vs humanized-ribosome RFP mutants, fluorescence, 24 h; hits give low values; DMSO median 0, no signal -100;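 active = significant combined selectivity score with lowered wild-type GFP, culture density cut under 30%, mutant RFP and density less affected; inactive = any of these conditions unmet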; note: one replicate is shown; some compounds called inactive have numbers as strong as hits
Ecoli rRNA inh OD600: second read-out of Ecoli rRNA inh, no call of its own (marks repeat the call); OD600 change, %; measured here: OD600 growth;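 optical density of the mix in the first replicate; 0 = DMSO median and -100 = no signal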
Ecoli rRNA inh RFP: second read-out of Ecoli rRNA inh, no call of its own (marks repeat the call); RFP signal change, %; measured here: RFP humanized mutant strains;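 first replicate; 0 = DMSO median and -100 = no signal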
* hit, by the source's call; & = joins results of further samples. A portion of the library; count on the stated rates, not on these rows.

SMILES | MLL AF4-AF9 inh | Ecoli rRNA inh | Ecoli rRNA inh OD600 | Ecoli rRNA inh RFP
OC[C@H]1[C@@H](c2ccc(-c3ccccc3F)cc2)[C@@H]2CN(Cc3cncnc3)CCCCN12 | 0.0 | 1 | 16 | 3.7
O=C(Cc1ccncc1)N[C@@H]1CC[C@@H](CCn2cc(-c3ccccc3F)nn2)O[C@H]1CO | 0.5 | -2 | -2 | 0.3
COc1ccc(CNC(=O)C[C@H]2C[C@H](C(=O)N3CCCCC3)[C@@]3(CCc4ccccc4)c4[nH]c5ccc(Cl)cc5c4CCN3C2=O)cc1OC | 2.3 | 16 | 0 | 1.3
O=C(C[C@@H]1CC[C@H](NC(=O)Cc2ccccn2)[C@@H](CO)O1)NCCc1ccccc1 | -3.5&2.0 | 1&9 | 0&8 | -1.0&-1.1
CN1C[C@@H]2[C@H](c3ccccc31)[C@@H](CO)N2C(=O)C1CCCCC1 | -5.6 | -3 | -4 | -1.6
CCCNC(=O)N[C@@H]1C=C[C@H](CC(=O)NC2CCC2)O[C@@H]1CO | -2.9 | 1 | -2 | -1.8
N#C[C@@H]1[C@@H](c2ccc(-c3cncnc3)cc2)[C@H](CO)N1C(=O)Cc1ccccc1 | -1.6 | 3 | 9 | -3.3
CCCNC(=O)Nc1ccc2c(c1)OC[C@@H](C)N(C(C)=O)C[C@H](C)[C@H](OC)CN(C)C2=O | -14 | -1 | 1 | 1.4
C[C@@H](NC(=O)C[C@@H]1C=C[C@@H](NC(=O)c2cccnc2)[C@@H](CO)O1)c1ccccc1 | -19 | 0 | 7 | -2.8
CC(=O)Nc1cccc(-c2cc(NC(C)=O)c3ncc(-c4ccc(F)cc4)n3c2)c1 | -8.8 | 3 | -9 | 3.0
Cc1ccccc1S(=O)(=O)NCC[C@@H]1CC[C@@H](NC(=O)C2CCCCC2)[C@@H](CO)O1 | -2.0 | -4 | 0 | -0.6
Cc1ccc(S(=O)(=O)N(C)C[C@@H]2Oc3ccc(NC(=O)Nc4ccccc4)cc3CC(=O)N([C@@H](C)CO)C[C@H]2C)cc1 | 3.5 | 1 | 5 | 1.4
CS(=O)(=O)Nc1ccc2c(c1)[C@@H]1C[C@@H](CC(=O)NC3CCCCC3)O[C@@H](CO)[C@@H]1O2 | -1.8 | 3 | 4 | -1.9
COc1ccccc1-c1cnc2c(Nc3cccc(OC(F)(F)C(F)F)c3)nccn12 | 5.2 | 11 | 18 | 2.6
O=C(Nc1cc(F)ccc1F)N[C@@H]1CC[C@H](CC(=O)N2CCc3ccccc3C2)O[C@H]1CO | -2.6 | -7 | -17 | -0.8
CC(C)NC(=O)N1[C@H](CO)[C@H]2c3ccccc3N(C(=O)Nc3ccc(Cl)cc3)C[C@H]21 | -0.7 | -15 | -4 | 1.5
O=S(=O)(Cc1ccccc1)N1CCCCN2[C@H](C1)[C@H](c1ccc(-c3ccncc3)cc1)[C@@H]2CO | 23 | -2 | -7 | -2.6
O=C(Nc1ccccc1F)N1C[C@@H]2N[C@H](C1)C2c1ccc(-c2ccccc2)cc1 (some centres not stated) | 5.4 | 3 | 0 | 0.8
COc1ccc2c3c(n(C)c2c1)[C@@H](CO)NCC31CN(CC2CCOCC2)C1 | 32* | 4 | 7 | 0.2
COc1ccc(CNC(=O)C[C@@H]2C=C[C@@H](NC(=O)CN(C)C)[C@H](CO)O2)cc1 | -1.6 | -1 | -16 | 0.6
CN(C)C(=O)C[C@@H]1C[C@@H]2c3cc(NC(=O)NC4CCCC4)ccc3O[C@@H]2[C@H](CO)O1 | -1.2 | 4 | 2 | 1.1
COCCN1C(=O)COc2ccccc2C1C(=O)Nc1ccc2c(c1)OCCO2 (configuration not stated) | 0.2 | 2 | 5 | -0.3
CN(C)c1ncnc2c1ncn2[C@H]1CN(Cc2cccnc2)C[C@@H](CO)O1 | -3.2 | 7 | 9 | -1.2
Cc1ccc(S(=O)(=O)N[C@@H]2CC[C@@H](CCn3cc(-c4cccnc4)nn3)O[C@H]2CO)cc1 | -0.8 | -1 | -4 | -2.4
Cc1ccc(S(=O)(=O)Nc2cccc3c2O[C@@H](CN(C)Cc2ccc(Oc4ccccc4)cc2)[C@@H](C)CN([C@H](C)CO)C3=O)cc1 | 0.1 | 3 | 6 | -0.7
CCCCNC(=O)C1(C)CCN1C(=O)c1cccc(OC(F)(F)F)c1 (configuration not stated) | -6.8 | -6 | -2 | 0.4
Cc1noc(C)c1NC(=O)N(C)C[C@@H]1Oc2ccc(NC(=O)CCCCCC(=O)Nc3ccccc3N)cc2C(=O)N([C@@H](C)CO)C[C@H]1C | -1.0 | 1 | 1 | 0.3
Cc1ccc(C)c(S(=O)(=O)N(C)c2ccc(OC(=O)CN3C(=O)NC4(CCCC4)C3=O)cc2)c1 | 3.2 | 9 | 17 | -0.9
CCCNC(=O)C[C@@H]1CC[C@@H]2[C@@H](COc3ccc(NC(=O)c4cccs4)cc3C(=O)N2C)O1 | 0.9 | 3 | 0 | -0.4
CO[C@H]1CN(C)C(=O)c2ccc(NC(=O)NC(C)C)cc2OC[C@H](C)N(CC2CC2)C[C@H]1C | -11 | 3 | 2 | 0.1

The final 4 entries of the part above lead into the next:
SMILES | MLL AF4-AF9 inh | Ecoli rRNA inh | Ecoli rRNA inh OD600 | Ecoli rRNA inh RFP
Cc1noc(C)c1NC(=O)N(C)C[C@@H]1Oc2ccc(NC(=O)CCCCCC(=O)Nc3ccccc3N)cc2C(=O)N([C@@H](C)CO)C[C@H]1C | -1.0 | 1 | 1 | 0.3
Cc1ccc(C)c(S(=O)(=O)N(C)c2ccc(OC(=O)CN3C(=O)NC4(CCCC4)C3=O)cc2)c1 | 3.2 | 9 | 17 | -0.9
CCCNC(=O)C[C@@H]1CC[C@@H]2[C@@H](COc3ccc(NC(=O)c4cccs4)cc3C(=O)N2C)O1 | 0.9 | 3 | 0 | -0.4
CO[C@H]1CN(C)C(=O)c2ccc(NC(=O)NC(C)C)cc2OC[C@H](C)N(CC2CC2)C[C@H]1C | -11 | 3 | 2 | 0.1
COCC(=O)N(C)C[C@H]1Oc2cc(-c3cccnc3)ccc2S(=O)(=O)N([C@H](C)CO)C[C@H]1C | 1.4 | -4 | -4 | -2.4
COc1ccc2c3c(n(C)c2c1)[C@H](CO)N(Cc1ccccc1OC)CC31CCN(C(=O)C2CC2)CC1 | 5.4 | 1 | 1 | 3.2
C[C@H](O)C#Cc1ccc([C@H]2[C@@H](CO)N3CCCCN(C(=O)Nc4ccccc4)C[C@H]23)cc1 | -1.5 | 2 | 9 | -1.7
CNC[C@@H]1Oc2ccc(N(C)C)cc2C(=O)N([C@@H](C)CO)C[C@@H]1C | -0.4 | 2 | 10 | 0.3
C[C@@H]1CN([C@H](C)CO)C(=O)Cc2cc(NC(=O)NC3CCCCC3)ccc2O[C@@H]1CN(C)Cc1ccc(Oc2ccccc2)cc1 | 0.1 | 2 | 1 | 0.7
O=C(Cc1cccnc1)N1CC(=O)N2[C@H](CO)[C@H](c3ccc(C#CC4CCCC4)cc3)[C@@H]2C1 | 3.7 | 2 | 0 | 4.0
Cc1ccc(-c2ccc3c(c2)O[C@@H](CN(C)Cc2ccc(C(=O)O)cc2)[C@@H](C)CN([C@H](C)CO)S3(=O)=O)cc1 | 2.3 | -9 | -7 | 0.2
C[C@@H]1CN([C@@H](C)CO)C(=O)c2cc(NC(=O)Nc3ccc4c(c3)OCO4)ccc2O[C@@H]1CN(C)S(=O)(=O)c1ccc(F)cc1 | 4.1 | -3 | -15 | -6.0
CCNC(=O)C1(C)CCCN(Cc2csc(-c3ccccc3)n2)C1 (configuration not stated) | 0.2 | 3 | 2 | 11
CCN(CC)C(=O)Cn1cc(SCC(=O)NC2CCCCC2)c2ccccc21 | 3.9 | 8 | 15 | 4.3
C[C@H]1CCCCO[C@H](CN(C)Cc2ccc(C(F)(F)F)cc2)[C@@H](C)CN([C@@H](C)CO)C(=O)c2cc(NS(=O)(=O)c3ccc(Cl)cc3)ccc2O1 | -2.5 | -1 | -8 | 6.8
O=C(C[C@@H]1C=C[C@@H](NC(=O)CN2CCOCC2)[C@@H](CO)O1)NCCc1ccccc1 | -1.1 | 2 | 9 | -1.8
CN1C=CC(=O)[C@@H](O)[C@H]1c1ccccc1Br | -1.0 | 10 | 4 | -0.2
Cc1ccccc1-c1ccc2c(c1)O[C@H](CN(C)C(=O)c1ccccn1)[C@H](C)CN([C@H](C)CO)S2(=O)=O | 1.6 | -4 | -11 | -2.6
O=C(C[C@H]1C=C[C@@H](NC(=O)c2ccccn2)[C@@H](CO)O1)NCc1cc(F)cc(F)c1 | 0.9 | 2 | 5 | -0.4
C[C@H](CO)N1C[C@H](C)[C@H](CN(C)C(=O)Nc2ccccc2)Oc2ccc(NC(=O)NC3CCCCC3)cc2CC1=O | -1.6 | 2 | 7 | 0.2
Cc1ccc(S(=O)(=O)Nc2ccc3c(c2)C(=O)N([C@@H](C)CO)C[C@H](C)[C@@H](CN(C)C(=O)Nc2ccc4c(c2)OCO4)OCCCC[C@@H](C)O3)cc1 | 7.1 | 4 | -4 | 0.0
CCCNC(=O)[C@@H]1[C@@H](CO)[C@@H]2Cn3c(ccc(-c4cccc(OC)c4)c3=O)[C@H]1N2C(=O)NCCC | -1.2 | 0 | 6 | -0.1
COCC(=O)N1CC2(C1)[C@H](c1ccc(-c3ccc(C)cc3)cc1)[C@@H](CO)N2C(C)=O | 2.5 | 0 | 7 | 1.0
C[C@@H]1CN([C@@H](C)CO)C(=O)c2cc(NS(=O)(=O)c3ccccc3)ccc2O[C@H]1CN(C)C(=O)Nc1ccc(F)cc1 | -0.8 | 1 | 4 | 0.7
CCCNC(=O)N(C)C[C@H]1Oc2cc(C3=CCCCC3)ccc2S(=O)(=O)N([C@H](C)CO)C[C@@H]1C | 1.8 | -4 | -8 | 0.9
O=C(CN1C(=O)NC(c2ccccc2)(c2ccccc2)C1=O)N1CCOCC1 | 0.2 | 12 | 8 | -0.6
Cc1ccc(S(=O)(=O)N(C)C[C@@H]2OCCCC[C@@H](C)Oc3ccc(NC(=O)NC(C)C)cc3C(=O)N([C@@H](C)CO)C[C@@H]2C)cc1 | -1.8 | -3 | -7 | -1.7
COc1cccc(S(=O)(=O)N[C@H]2CC[C@@H](CC(=O)NCc3ccncc3)O[C@@H]2CO)c1 | -1.9 | -1 | 1 | -0.5
C[C@@H]1CN([C@@H](C)CO)C(=O)Cc2cc(NC(=O)Cc3ccccc3)ccc2O[C@@H]1CN(C)Cc1ccncc1 | -2.7 | -1 | -6 | -2.4
CO[C@H]1CN(C)C(=O)c2ccc(NC(=O)C3CCC3)cc2OC[C@H](C)NC[C@H]1C | -1.7 | -1 | 0 | -1.2
CCCNC(=O)N(C)C[C@H]1Oc2ncc(Br)cc2C(=O)N([C@@H](C)CO)C[C@H]1C | -3.2 | 7 | 21 | -0.2
CNC[C@@H]1Oc2c(NC(=O)c3cc(C)nn3C)cccc2C(=O)N([C@@H](C)CO)C[C@H]1C | -2.5 | 2 | 2 | 4.1
C[C@H]1CN([C@@H](C)CO)C(=O)c2cc(NS(=O)(=O)c3cn(C)cn3)ccc2O[C@@H]1CN(C)S(C)(=O)=O | -3.9 | 3 | 6 | -1.9
C[C@@H]1CN([C@H](C)CO)C(=O)CCCn2nncc2CO[C@@H]1CN(C)Cc1ccc(C(=O)O)cc1 | -3.1 | 0 | -4 | -0.7

Part of the list above, with values ahead of the structure.
MLL AF4-AF9 inh,Ecoli rRNA inh,Ecoli rRNA inh OD600,Ecoli rRNA inh RFP,molecule
0.9,3,0,-0.4,CCCNC(=O)C[C@@H]1CC[C@@H]2[C@@H](COc3ccc(NC(=O)c4cccs4)cc3C(=O)N2C)O1
-11,3,2,0.1,CO[C@H]1CN(C)C(=O)c2ccc(NC(=O)NC(C)C)cc2OC[C@H](C)N(CC2CC2)C[C@H]1C
1.4,-4,-4,-2.4,COCC(=O)N(C)C[C@H]1Oc2cc(-c3cccnc3)ccc2S(=O)(=O)N([C@H](C)CO)C[C@H]1C

The results go on.
SMILES | MLL AF4-AF9 inh | Ecoli rRNA inh | Ecoli rRNA inh OD600 | Ecoli rRNA inh RFP
C[C@H]1CN([C@@H](C)CO)C(=O)c2cccc(NC(=O)C3CC3)c2O[C@@H]1CN(C)S(=O)(=O)c1cn(C)cn1 | -1.2 | 2 | 3 | 0.8
C[C@@H]1CN([C@@H](C)CO)C(=O)c2cc(C#CC(C)(C)O)cnc2O[C@H]1CN(C)C(=O)C1CCC1 | -5.4 | 4 | 10 | 0.4
COc1ccc(C#Cc2ccc([C@H]3[C@H](CO)N4CCCCN(C)C[C@@H]34)cc2)cc1 | 4.7 | 0 | 0 | 3.9
CO[C@H]1CN(C)C(=O)c2cc(NC(=O)Nc3ccccc3)ccc2OC[C@H](C)N(C(C)=O)C[C@H]1C | 4.1 | -2 | -1 | 1.7
CCC(=O)N1[C@@H]2Cn3c(cccc3=O)[C@H]1[C@@H](C(=O)NCc1ccc(F)cc1)[C@@H]2CO | -1.9 | 3 | 7 | -0.9
COC(=O)[C@]12C[C@H](CC(=O)NCC34CC5CC(CC(C5)C3)C4)C(=O)N(Cc3ccc4c(c3)OCO4)C1=C[C@H](COCc1ccccc1)O[C@@H]2C | -2.0 | 2 | 10 | 1.4
O=C(Nc1cc(F)ccc1F)N1CCCCN2[C@@H](CO)[C@@H](c3ccc(C4=CCCCC4)cc3)[C@@H]2C1 | 16 | -55 | -80 | -16
COCC#Cc1ccc([C@@H]2[C@H](CO)N3C(=O)CN(C(=O)C4CCC4)C[C@@H]23)cc1 | -6.0 | -2 | 16 | -0.2
CCCNC(=O)N(C)C[C@@H]1Oc2ncc(-c3cccc(C#N)c3)cc2C(=O)N([C@H](C)CO)C[C@@H]1C | -4.5 | 3 | 21 | 2.0
